GIV-Gai inh = inhibitors of GIV peptide binding to Galpha-i3, primary screen, biochemical, fluorescence polarization, FITC-GIV GBA peptide, rat Galphai3 | percent of control (FP), % (no concentration beside the values) | 90 min; active compounds read low; scaled: aluminum fluoride 0%, vehicle 100% | Guanine nucleotide-binding protein G(i) subunit alpha-3 (Rattus norvegicus), P08753 | actives 0.42% (n = 210,000);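 active = replicate mean at 85% of control or lower, very high polarization wells dropped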;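 note: wells of about 15 µL received 100 nL stock; the first replicate is given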
Target sequence (P08753 whole entry, looked up): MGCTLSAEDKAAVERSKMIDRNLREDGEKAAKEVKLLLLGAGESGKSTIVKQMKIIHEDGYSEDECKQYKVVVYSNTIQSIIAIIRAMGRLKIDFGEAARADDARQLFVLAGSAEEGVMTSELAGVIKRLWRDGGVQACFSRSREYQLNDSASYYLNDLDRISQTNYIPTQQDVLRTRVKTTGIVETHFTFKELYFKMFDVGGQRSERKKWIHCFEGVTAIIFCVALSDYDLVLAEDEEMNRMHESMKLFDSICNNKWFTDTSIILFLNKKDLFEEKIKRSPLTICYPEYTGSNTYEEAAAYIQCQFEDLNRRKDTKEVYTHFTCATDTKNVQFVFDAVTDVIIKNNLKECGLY
Sa growth inh = S. aureus growth inhibition at 42 and 30 °C, primary screen, LtaS inhibitor project, RN4220, two temperatures; OD600, 20 h, 42 °C; active compounds read low; actives 0.53% (n = 170,000); relative growth, % (concentration not given with the values);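 active = growth at 42 °C up to 50% and 20 or more points under that at 30 °C, or under 10% at both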;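 note: 300 nL library stock went into each well; scaled to the means of positive and negative controls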
HCMV NEC inh = inhibitors of HCMV UL50-UL53 interaction, biochemical, HTRF | HCMV UL50-UL53 nuclear egress complex (human cytomegalovirus) | normalized percent inhibition | inhibition, % (test concentration not listed) | actives 0.15% (n = 190,000) | AID 1918969, 2023;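 active = both replicates at 50% or more, plus weaker picks with an unusually low signal ratio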;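 note: stock transfer was 100 nL into about 20 µL; 0% = negative control wells and 100% = wells with untagged competitor protein; inactives centre near -12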
Sa growth inh second temp = second read-out of Sa growth inh, no call of its own (marks repeat the call); relative growth, %; measured here: growth at 30 °C;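 optical density after 20 h as mean of two plates; 100% = untreated growth and lower means inhibition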
The depositor's hits bear a star; nt = not tested or not shown; & = joins results of further samples. Only part of the results is shown, so the mix of outcomes need not match the whole.

SMILES	GIV-Gai inh	Sa growth inh	HCMV NEC inh	others
C=CC1=C(C(=O)O)N2C(=O)[C@@H](NC(=O)C(=NO)c3csc(N)n3)[C@H]2SC1	nt	-0.1*	nt	Sa growth inh second temp=-0.4*
CCCCNC(=O)Cn1nc2c(N3CCSCC3)nccn2c1=O	97	nt	nt
CN(CC1(C)CCOCC1)C(=O)NCc1ccco1	104	nt	nt
COc1ccc(N2CCN(S(=O)(=O)c3cc(-c4csc(C)n4)sc3C)CC2)cc1	103	nt	nt
O=C(c1ccc2c(c1)CCN2C(=O)C1CCC1)N1CCCC1	103	nt	nt
CCCCn1nc2c(S(=O)(=O)N3CCOCC3)cccn2c1=O	109	nt	nt
CC1CCN(S(=O)(=O)c2cccn(CC#N)c2=O)CC1	101	nt	nt
Cc1cc(N2CCOCC2)nc(N2CCN(S(=O)(=O)c3cc(C(C)C)ccc3C)CC2)n1	101	nt	nt
CCN(CC)C(=O)c1cc2c(s1)CCC(C(=O)N1CCC(C)CC1)C2 (stereo unspecified)	106	nt	nt
CC(C)CCNC(=O)c1cn(C)nc1S(=O)(=O)N1CCSCC1	102	nt	nt
COc1cc(-c2noc(Cn3ccnc3)n2)cc(OC)c1OC	105	nt	nt
Nc1cc(-c2ccncc2)c[nH]c1=O	nt	nt	-41&-123
C=C1c2cccc(O)c2C(O)=C2C(=O)[C@]3(O)C(O)=C(C(N)=O)C(=O)C(N(C)C)[C@@H]3C(O)[C@H]12 (stereo partly specified)	nt	nt	-12
Cc1ccc(Cl)cc1N(CC(=O)Nc1c(F)cccc1F)S(C)(=O)=O	nt	nt	-8
O=C(O)CCC/C=C\C[C@H]1C(=O)C[C@@H](O)[C@@H]1/C=C/[C@@H](O)CCc1ccccc1	nt	nt	-20&-20&-16
C[C@]12CC[C@H]3[C@@H](CCC4=CC(=O)CC[C@@]43C)[C@@H]1CC[C@@H]2C(=O)CO	nt	nt	-4
O=C1c2ccc(Nc3ccc(F)cc3F)cc2CCc2ccc(OCC(O)CO)cc21 (stereo unspecified)	nt	nt	-14
Cc1c(C(=O)Nc2ccc(N3CC(C)OC(C)C3)nc2)cccc1-c1ccc(OC(F)(F)F)cc1 (stereo unspecified)	nt	nt	-4
CC1CC[C@]2(C(=O)O)CC[C@]3(C)C(=CC[C@H]4[C@@]5(C)CC(O)C(O)[C@@](C)(CO)[C@@H]5CC[C@]43C)[C@H]2C1C (stereo partly specified)	nt	nt	-12
O=C(O)[C@@H]1[C@H]2C[C@H]3c4[nH]c5ccccc5c4CCN3C[C@@H]2CC[C@@H]1O	nt	nt	-31
CCC(=O)O[C@@]1(C(=O)SCF)C(C)C[C@H]2[C@@H]3CC(F)C4=CC(=O)C=C[C@]4(C)[C@]3(F)C(O)C[C@@]21C (stereo partly specified)	nt	nt	-2
Cc1[nH]c(C=C2C(=O)Nc3ccccc32)c(C)c1CCC(=O)O	nt	nt	-155&-25&-73&-114
COc1cc(C)c(Sc2cnc(NC(=O)c3ccc(CNC(C)C(C)C)cc3)s2)cc1C(=O)N1CCN(C(C)=O)CC1 (stereo unspecified)	nt	nt	-5&-6&-8&-9
COc1cc(N)c(Cl)cc1C(=O)NC1CCN(CCCOc2ccc(F)cc2)CC1OC (stereo unspecified)	nt	nt	-65
O=C(NCC(O)CO)c1ccncc1Nc1ccc(I)cc1F (stereo unspecified)	nt	nt	-10
CCCC(=O)O	nt	nt	-20&-20
CC(C)(C)c1cnc(CSc2cnc(NC(=O)C3CCNCC3)s2)o1	nt	nt	-28&-3&-13&-3
O=c1cc[nH]c(=O)[nH]1	nt	nt	-18&-62
CC(=O)Nc1ccc(C(C)C(=O)Nc2ncc(C(C)C)s2)cc1 (stereo unspecified)	nt	nt	-1&-9&-6
CC(=O)[C@H]1CC[C@H]2[C@@H]3C[C@H](C)C4=CC(=O)CC[C@]4(C)[C@H]3[C@@H](O)C[C@]12C	nt	nt	-20&8

Molecules listed so far with a carbonyl joined to an NH by a bond outside any ring, in the order listed:
SMILES	GIV-Gai inh	Sa growth inh	HCMV NEC inh	others
C=CC1=C(C(=O)O)N2C(=O)[C@@H](NC(=O)C(=NO)c3csc(N)n3)[C@H]2SC1	nt	-0.1*	nt	Sa growth inh second temp=-0.4*
CCCCNC(=O)Cn1nc2c(N3CCSCC3)nccn2c1=O	97	nt	nt
CN(CC1(C)CCOCC1)C(=O)NCc1ccco1	104	nt	nt
CC(C)CCNC(=O)c1cn(C)nc1S(=O)(=O)N1CCSCC1	102	nt	nt
C=C1c2cccc(O)c2C(O)=C2C(=O)[C@]3(O)C(O)=C(C(N)=O)C(=O)C(N(C)C)[C@@H]3C(O)[C@H]12 (stereo partly specified)	nt	nt	-12
Cc1ccc(Cl)cc1N(CC(=O)Nc1c(F)cccc1F)S(C)(=O)=O	nt	nt	-8
Cc1c(C(=O)Nc2ccc(N3CC(C)OC(C)C3)nc2)cccc1-c1ccc(OC(F)(F)F)cc1 (stereo unspecified)	nt	nt	-4
COc1cc(C)c(Sc2cnc(NC(=O)c3ccc(CNC(C)C(C)C)cc3)s2)cc1C(=O)N1CCN(C(C)=O)CC1 (stereo unspecified)	nt	nt	-5&-6&-8&-9
COc1cc(N)c(Cl)cc1C(=O)NC1CCN(CCCOc2ccc(F)cc2)CC1OC (stereo unspecified)	nt	nt	-65
O=C(NCC(O)CO)c1ccncc1Nc1ccc(I)cc1F (stereo unspecified)	nt	nt	-10
CC(C)(C)c1cnc(CSc2cnc(NC(=O)C3CCNCC3)s2)o1	nt	nt	-28&-3&-13&-3
CC(=O)Nc1ccc(C(C)C(=O)Nc2ncc(C(C)C)s2)cc1 (stereo unspecified)	nt	nt	-1&-9&-6

(list continues)
SMILES	GIV-Gai inh	Sa growth inh	HCMV NEC inh	others
CCN1CCN(Cc2ccc(-c3cc4c(NC(C)c5ccccc5)ncnc4[nH]3)cc2)CC1 (stereo unspecified)	nt	nt	-19
CC(=O)Nc1nc(C)c(-c2ccc(Cl)c(S(=O)(=O)NCCO)c2)s1	nt	nt	-39
O=C(O)CCC/C=C\C[C@H]1[C@@H](/C=C/[C@@H](O)CCc2ccccc2)[C@H](O)C[C@H]1O	nt	nt	-21&-21
Nc1nccs1	nt	nt	1
CC(NCc1ccc(OCc2cccc(F)c2)cc1)C(N)=O (stereo unspecified)	nt	nt	-3
CNC(=O)c1cc(Oc2ccc(NC(=O)Nc3cc(C(C)(C)C)nn3-c3ccc4ncccc4c3)c(F)c2)ccn1	nt	nt	-10
COc1cc(N2CCC(N3CCN(C)CC3)CC2)ccc1Nc1ncc(Cl)c(Nc2ccccc2S(=O)(=O)C(C)C)n1	nt	nt	-7&-4&-12&-2
CCOc1ccn(-c2ccc(F)cc2)c(=O)c1C(=O)Nc1ccc(Oc2ccnc(N)c2Cl)c(F)c1	nt	nt	-7
CCC1C(=O)N(C)c2cnc(Nc3ccc(C(=O)NC4CCC(N5CCN(CC6CC6)CC5)CC4)cc3OC)nc2N1C(C)C (stereo unspecified)	nt	nt	2
Cc1cncc2cccc(S(=O)(=O)N3CCCN(C(=O)CN)C[C@H]3C)c12	nt	nt	-24
NC(=O)n1c(O)c(C(=O)c2cccs2)c2cc(Cl)ccc21	nt	nt	-30
CC(Nc1ncnc2nc[nH]c12)c1cc2cccc(Cl)c2c(=O)n1-c1ccccc1 (stereo unspecified)	nt	nt	-15
O=C(O)CCC/C=C\C[C@H]1[C@@H](O)CC(=O)[C@@H]1/C=C/[C@@H](O)CCc1ccccc1	nt	nt	-4&-4
COc1cc(Nc2c(C#N)cnc3cc(OCCCN4CCN(C)CC4)c(OC)cc23)c(Cl)cc1Cl	nt	nt	14&3&10&26&4
CCOC(=O)C(CCc1ccccc1)NC1CSC(c2cccs2)CN(CC(=O)O)C1=O (stereo unspecified)	nt	nt	-8
O=C(O)CCC/C=C\C[C@@H]1[C@@H](/C=C/C(=O)COc2cccc(C(F)(F)F)c2)[C@H](O)C[C@@H]1O	nt	nt	-16&-16
N#Cc1c(Oc2ccc(F)c(NC(=O)Cc3cccc(C(F)(F)F)c3)c2)ccc2nc(NC(=O)C3CC3)sc12	nt	nt	-6
OCC1OC(c2ccc(Cl)c(Cc3ccc(OC4CCOC4)cc3)c2)C(O)C(O)C1O (stereo unspecified)	nt	nt	-10
O=C(O)CCC/C=C\C[C@H]1[C@@H](O)CC(=O)[C@@H]1/C=C/[C@@H](O)COc1cccc(C(F)(F)F)c1	nt	nt	-22&-22
OC1(c2ccc(Cl)c(C(F)(F)F)c2)CCN(CCCC(c2ccc(F)cc2)c2ccc(F)cc2)CC1	nt	nt	1&-41
O=C(O)CCC/C=C/C[C@@H]1[C@@H](CC[C@@H](O)CCc2ccccc2)[C@H](O)C[C@@H]1O	nt	nt	-12&-12
CC(C)n1cnc2c(NCCc3ccc(O)cc3)nc(-c3csc4ccccc34)nc21	nt	nt	-3
COc1cc2c(Oc3ccc4[nH]c(C)cc4c3F)ncnc2cc1OCCCN1CCCC1	nt	nt	-6
CC[C@@H](CO)Nc1nc(NCc2ccc(-c3ccccn3)cc2)c2ncn(C(C)C)c2n1	nt	nt	-18
Cn1c(Nc2ccc(C(F)(F)F)cc2)nc2cc(Oc3ccnc(-c4ncc(C(F)(F)F)[nH]4)c3)ccc21	nt	nt	13
CN1CCc2c(c3ccccc3n2Cc2ccc(C(=O)NO)cc2)C1	nt	nt	4&-6
COc1cc(OC)c2c(=O)[nH]c(-c3cc(C)c(OCCO)c(C)c3)nc2c1	nt	nt	-9
CNC1CN(c2ccc3c(=O)c(C(=O)O)cn(-c4nccs4)c3n2)CC1OC (stereo unspecified)	nt	nt	9
CN(C)CCCSc1ccccc1NC(=O)C=Cc1ccccc1	nt	nt	-38
CC(C)CC(=O)Nc1n[nH]c2c1CN(C(=O)C1CCN(C)CC1)C2(C)C	nt	nt	-9&-5&-3&-6&-8
COc1c(O)cc2c(c1O)C1OC(CO)C(O)C(O)C1OC2=O (stereo unspecified)	nt	nt	-9
Nc1nc(Nc2ccc(S(N)(=O)=O)cc2)nn1C(=O)c1c(F)cccc1F	nt	nt	-3&-4&9&-1&-5
O=C(c1cc(Cc2n[nH]c(=O)c3ccccc23)ccc1F)N1CCN(C(=O)C2CC2)CC1	nt	nt	-20
Cc1nc(NC(=O)N2CCCC2C(N)=O)sc1-c1ccnc(C(C)(C)C(F)(F)F)c1 (stereo unspecified)	nt	nt	-15
CC1(O)CC(c2nc(-c3ccc4ccc(-c5ccccc5)nc4c3)c3c(N)nccn23)C1 (stereo unspecified)	nt	nt	-95
CC1=NN(c2ccccc2)C(=O)C1	nt	nt	-1&4&1
CC1(C)OC(=O)C(OCC2CC2)=C1c1ccc(S(C)(=O)=O)cc1	nt	nt	-77
CC[C@H](CO)Nc1nc(Nc2cccc(-c3ccccn3)c2)c2ncn(C(C)C)c2n1	nt	nt	3
CCNc1nc(Nc2cc(F)c(C(=O)N3CCOCC3)cc2OC)ncc1C(F)(F)F	nt	nt	0
COc1cccc(-c2cc(F)ccc2C2Cc3nc(N)nc(C)c3C(=O)N2)n1 (stereo unspecified)	nt	nt	-4

Reprinted from the listing (4 entries):
SMILES	GIV-Gai inh	Sa growth inh	HCMV NEC inh	others
CC1(C)OC(=O)C(OCC2CC2)=C1c1ccc(S(C)(=O)=O)cc1	nt	nt	-77
CC[C@H](CO)Nc1nc(Nc2cccc(-c3ccccn3)c2)c2ncn(C(C)C)c2n1	nt	nt	3
CCNc1nc(Nc2cc(F)c(C(=O)N3CCOCC3)cc2OC)ncc1C(F)(F)F	nt	nt	0
COc1cccc(-c2cc(F)ccc2C2Cc3nc(N)nc(C)c3C(=O)N2)n1 (stereo unspecified)	nt	nt	-4
